Source: PubChem BioAssay
gsp ag – gsp mutant agonism; 340,000 compounds, 0.13% hits; Potency, µM (titrated, usually from 76.9 µM), without a hit: at the top dose activation (cAMP increase), most hits filed as activators; gsp mutant cells, cAMP HTRF, 30 min; control for the full effect not named in the record; active = well fitted activation curve with a large enough effect; inconclusive = small, poorly fitted or top-dose-only effect, or another doubt; inactive = no such curve, though single readings can be large or run the other way; cell line not stated here;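 further: phosphodiesterase inhibitor Ro 20-1724 added with compounds to block cAMP breakdown; potency means the concentration at half of the fitted maximal effect; nearly all actives have a fitted effect of over 60% in size; about a fifth of the inactives were tested at one dose only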
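Cells stably selected in G418 were plated at 2000/well, grown 16-24 hr, then given compounds in DMSO with the PDE inhibitor […] (300 uM solution added) for 30 min at 37C; cAMP was read by HTRF.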
gsp antag – antagonizes gsp, the McCune-Albright syndrome mutation | gsp-mutant cells, cAMP HTRF, 30 min; control for the full effect not named in the record | Potency, µM (titrated, usually from 76.9 µM), without a hit: at the top dose activity change, negative = inhibition, usual class: inhibitors | 340,000 compounds, 0.4% hits; active = falling curve of any shape with a large fitted effect; inconclusive = falling curve, mostly with a smaller effect; inactive = flat or rising curve; cell line not stated here;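 further: intracellular cAMP measured with PDE inhibitor Ro 20-1724 present during compound exposure; potency means the concentration at half of the fitted maximal effect; on the % scale 0 is the no-effect control and ±100 the full control effect; nearly all actives have a fitted effect of over 65% in size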
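Cells, 2000/well, grown 16–24 h in DMEM 10% FBS with 0.5 mg/ml G418, then compounds plus […] (300 uM addition stock), 30 min at 37C. cAMP read by HTRF (cAMP-d2 and anti-cAMP antibody-K in lysis buffer) after 30 min RT.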
Menin MLL FP FL – menin-MLL binding inhibition, fluorescein peptide. Fluorescence polarization, fluorescein-MLL peptide displacement from menin. FP activity change, % at 61.4 µM. 290,000 tested, under 10 active; inconclusive = falling polarisation curve, or a change in total fluorescence; inactive = total fluorescence flat and polarisation flat or rising; no compound was filed as active; the % refers to the polarisation; negative = inhibition;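 further: % of control where 0% means no effect; inhibitors lower the polarisation; unlabelled MLL peptide was the positive control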
D2 agonist – agonists of human D2 dopamine receptor (beta-arrestin); P14416; DiscoveRx PathHunter D2 beta-arrestin, luminescence, 90 min; 100% = 57 uM dopamine signal; AID 624465; activation, % (concentration not given with the values); 360,000 compounds, 0.084% hits; in the data active = activation above about 40%; inconclusive = about 15% to 40%; inactive = below about 15%; further: the text of the record calls up to 30% inactive
Target sequence (P14416 whole entry, looked up): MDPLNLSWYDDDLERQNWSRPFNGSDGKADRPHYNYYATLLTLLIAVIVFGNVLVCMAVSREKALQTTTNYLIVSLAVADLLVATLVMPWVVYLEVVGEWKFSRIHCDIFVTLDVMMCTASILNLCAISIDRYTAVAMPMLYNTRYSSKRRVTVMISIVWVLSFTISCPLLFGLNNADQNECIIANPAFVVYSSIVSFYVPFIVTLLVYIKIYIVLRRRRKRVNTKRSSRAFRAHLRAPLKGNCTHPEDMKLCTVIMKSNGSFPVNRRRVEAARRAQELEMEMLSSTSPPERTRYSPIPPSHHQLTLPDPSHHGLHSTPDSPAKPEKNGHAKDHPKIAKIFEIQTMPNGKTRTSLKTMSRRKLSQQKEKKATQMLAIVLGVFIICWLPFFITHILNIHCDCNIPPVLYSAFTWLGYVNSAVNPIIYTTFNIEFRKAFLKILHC
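Agonist mode: compounds alone added to overnight-plated D2 PathHunter cells for 90 min at 37 C, with 57 uM final dopamine (EC100) defining full response. Beta-arrestin recruitment detected by chemiluminescent reagent, read after 1 h at ambient temperature.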
ClpP mod – qHTS Assay for Activators of ClpP. ATP-dependent Clp protease proteolytic subunit (Bacillus subtilis (strain 168)), P80244. purified B. subtilis ClpP, FRET peptide cleavage, 20 min. Potency, µM (highest dose often 57.5 µM), for the others: top-dose activity change, negative = active. 340,000 compounds, 1.9% hits; active = well fitted falling curve with a large enough effect; inconclusive = small, poorly fitted or top-dose-only effect; inactive = no such curve, though single readings can be large or run the other way; further: potency means the concentration at half of the fitted maximal effect; the source files actives as falling curves though it sought activators and does not explain the sign; nearly all actives have a fitted effect of over 65% in size; many hits overshoot -100%
Target sequence (P80244 whole entry, looked up): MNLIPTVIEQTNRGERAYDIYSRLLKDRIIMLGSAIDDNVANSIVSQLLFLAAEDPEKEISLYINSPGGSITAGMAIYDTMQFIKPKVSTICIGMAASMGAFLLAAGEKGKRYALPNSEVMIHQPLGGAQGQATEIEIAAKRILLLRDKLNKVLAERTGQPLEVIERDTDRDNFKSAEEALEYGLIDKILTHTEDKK
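ClpP 10 microg/mL final, pH 8 Tris/KCl buffer with BSA, glycerol, Tween-20; compound pinned in; FRET-FV substrate; RT 20 min; Ex320/Em430; ΔFRET vs ADEP 5.8 microM, DMSO, no enzyme.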
Sfp PPTase inh – Sfp phosphopantetheinyl transferase inhibition | AID 1490 | Biochemical Sfp PPTase activity, qHTS | Q9F4F7 | 310,000 compounds, 3.5% hits | Potency, µM, without a hit: max response, negative = inhibition, hits mostly inhibitors; active means well fitted inhibition curve with a large enough effect; inconclusive means small, poorly fitted or top-dose-only effect, or another doubt; inactive means no such curve, though single readings can be large or run the other way;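 further: the enzyme is Sfp with the accession as filed and its product quenches rhodamine fluorescence; potency means the concentration at half of the fitted maximal effect; 0% = enzyme reaction without inhibitor and -100% = no enzyme wells; top concentration of the series not given in the record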
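Fluorescence-quenching assay with 15 nM Sfp, 5 uM rhodamine-CoA and 12.5 uM BHQ-2-labelled ybbR peptide in pH 7.6 Hepes/MgCl2 buffer. Enzyme was pre-incubated with compound for 15 min at room temperature. Rate was taken from the 30-min fluorescence change (525/598 nm).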
PINK1 expr mod – PINK1 expression modulation. PINK1 immunofluorescence, high-content cytometry, 24 h. Potency, µM (highest dose often 76.6 µM), inactives show at the top dose activation (PINK1 increase), usual class: activators. 410,000 compounds, 0.2% hits. AID 624263; active = well fitted activation curve with a large enough effect; inconclusive = small, poorly fitted or top-dose-only effect; inactive = flat fitted curve, though single readings scatter; cell line not stated here;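 further: potency means the concentration at half of the fitted maximal effect; % of control where 0% means no effect; nearly all actives have a fitted effect of over 65% in size; a mitochondrial uncoupler was the plate control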
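Decision-based qHTS: stable cells, 24 h exposure to five compound concentrations, CCCP as control. Fixed cells stained for PINK1 plus nuclear, mitochondrial and cell markers, cytometer read.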
An asterisk follows results filed as active; ? = inconclusive; / = no result given; & = joins results of further samples; [ ] = another dose, or the depositor's remark.

SMILES	gsp ag	gsp antag	Menin MLL FP FL	D2 agonist	ClpP mod	Sfp PPTase inh	PINK1 expr mod
O=C(Cn1c(C(F)(F)F)nc2ccccc21)Oc1cccc(C(F)(F)F)c1	3%	5%	1.3	3.2	-6.1%	79µM*	-1.5%
C=CCn1c(SCC(=O)Nc2ccc(OC)cc2)nnc1-c1cnccn1	12%	6%	/	0.9	/	4%	1.9%
Cc1csc(NC(=O)C2CC(=O)N(c3ccc(C)c(C)c3)C2)n1 (stereo not drawn)	-11%[15.4 µM]	-11%	0.2	-4.8	/	12%	3.3%
C=CCN1C=CC(=C/C=C(/C#N)C(=O)OCC)C=C1	-3%	?	?	-6.2	0.2%	1%	?
CCC(=O)Nc1cc(OC)cc(OC)c1	?	12%	8.1	-6.0	-0.2%	-3%	0.2%
COc1ccc(Cl)cc1C(=O)NNC(=O)c1csc(N2CCOCC2)n1	1%	-6%	/	-0.7	-1.9%	/	1.0%
Cc1ccc(CNc2ccc([N+](=O)[O-])cc2C(N)=O)cc1	/	-2%	/	-3.1	1.8%	/	1.4%
Cc1ccc(Sc2cc(Cl)nc(N)n2)cc1	-27%	9%	2.6	0.9	0.2%	1%	1.1%
CCOc1ccc(OCc2ccc(C(=O)N3CCCCC3)o2)cc1	-49%[inhibitor]	-6%	/	2.7	-0.2%	12%	1.5%
COc1ccc(C(=O)COC(=O)c2sccc2C)cc1OC	1%	-10%	/	8.8	-3.4%	/	2.5%
COc1ccc(C(C)C)cc1S(=O)(=O)Nc1ncn[nH]1	1%	7%	2.1	2.0	/	16%	2.5%
Cc1ccccc1NC(=O)CN1C(=O)COc2ccc(Cl)cc21	-16%	2%	0.9	-3.3	2.7%	20%	2.5%
O=C(CCSCCc1ccccn1)Nc1ccc(Br)cc1F	-19%	-1%	2.2	0.3	-2.5%	-2%	-0.3%
COc1cccc(-c2cc(NC=O)c3ncc(-c4ccc(F)c(Cl)c4)n3c2)c1	/	/	/	-8.1	-24%	/	1.1%
COCc1cc(Sc2cccc(Cl)c2Cl)nc(-c2ccccc2)n1	14%	-3%	-0.9	-2.3	-1.4%	-12%	30%
CC(C)(C)C(=O)N1CCN(c2nc3ccc(Cl)cc3s2)CC1	?	-5%	0.2	-0.6	/	10%	8.8%
O=C(CCNC(=O)N1CCn2c1nc1ccccc12)NCc1ccccc1	-15%	13%	/	-0.9	-0.5%	14%	1.9%
COc1ccc(OC)c(/C=N/NC(=O)CN2CCSCC2)c1	12%	5%	/	-1.9	?	-20%	-0.6%
O=C1C(N2CCOCC2)=Cc2cccc3cccc1c23	21%	/	/	-6.7	-2.1%	/	-0.6%
CC1CCC(CN2C(Nc3ccccc3)=NC[C@@H]2C)CC1 (stereo partly drawn)	-8%	15%	5.7	-0.1	0.5%	14%	3.0%
Cc1ccc(-c2csc(NC(=O)/C=C/c3ccco3)c2C(=O)O)cc1	-7%	-28%	17	-3.8	/	28µM*	-0.7%
O=C(CCc1nc2ccccc2c(=O)[nH]1)NNC(=O)c1ccccc1Cl	1%[15.4 µM]	5%	/	-3.8	-4.8%	/	-1.4%
COc1ccc(CC(=O)Nc2ccccc2C(=O)N2CCOCC2)cc1OC	0%	15%	2.5	-1.5	1.0%	-1%	0.0%
Cn1cccc1C(=O)NC(=O)COC(=O)CC12CC3CC(CC(C3)C1)C2	-21%	-3%	1.0	-1.9	1.5%	26%	-0.1%
CCCNS(=O)(=O)c1ccc(OCC(=O)Nc2ccc3c(c2)OCCO3)c(C)c1	24%	-13%	/	-5.7	-1.5%	/	3.5%
SMILES	gsp ag	gsp antag	Menin MLL FP FL	D2 agonist	ClpP mod	Sfp PPTase inh	PINK1 expr mod
CCCCN1C(=O)C(O)(CC(=O)c2ccccc2OC)c2ccccc21 (stereo not drawn)	-20%	-12%	0.4	-2.6	1.0%	21%	-0.2%
CC(C)C(NC(=O)c1ccc(Cl)cc1Cl)C(=O)N1CCN(S(=O)(=O)c2ccccc2)CC1 (stereo not drawn)	-6%	3%	/	-0.8	/	/	2.0%
O=C(CCn1c(=S)oc2ccccc21)Nc1cccc(F)c1	26%[15.4 µM]	4%	-1.6	-6.0	/	13%	11%
CS(=O)(=O)N1CCN=C1SCc1ccc(Br)cc1	5%	7%	/	1.0	-0.2%	8%	-0.3%
CCOc1ccc(/C(O)=C2/C(=O)C(=O)N(CCN(CC)CC)C2c2ccco2)cc1 (stereo not drawn)	-5%	6%	0.4	-3.5	?	14%	-0.6%
CC(=O)NCCNc1nc2cc(-c3ccc(C)cc3)sc2c(=O)n1C	/	/	/	-2.0	-16%	/	7.1%
COC(=O)c1ccccc1S(=O)(=O)NNC(=O)c1ccccc1-n1cccc1	-33%[inhibitor]	-2%	6.4	-5.4	-1.8%	-10%	12%
CCN(CC)CCC(=O)N1c2ccccc2CCc2ccc(NC(=O)OC(C)C)cc21	0%	3%	-1.4	-3.9	-0.8%	12%	1.4%
CS(=O)(=O)Cc1nc2ccccc2n1CC(=O)Nc1cccc(S(=O)(=O)N2CCCC2)c1	-1%	5%	/	6.7	0.5%	/	0.4%
CC(=O)c1ccc(NC(=O)c2ccc(CNc3c(N4CCOCC4)c(=O)c3=O)cc2)cc1	-48%	-14%	4.9	0.6	0.9%	-27%	4.5%
COC(=O)c1cc(S(=O)(=O)N(Cc2ccccc2)C(C)(C)C)c[nH]1	?	-10%	-0.5	-0.7	-1.5%	-7%	1.0%
Cc1ccc(S(=O)(=O)N(C(=O)c2ccncc2)c2ccc(OC(=O)c3ccncc3)cc2)cc1	-2%	8%	/	4.5	2.6%	10%	3.9%
CCOc1ccc2nc(N3CCCC(C(=O)NC4CCCC4)C3)sc2c1 (stereo not drawn)	16%	-21%	1.3	-0.6	-0.2%	2%	-0.2%
CC(C)c1ccccc1OCCCCCN1CCOCC1	5%[15.4 µM]	-1%	/	-2.1	/	/	3.1%
CCn1ccnc1C(O)(c1ccccc1)c1ccccc1	?	7%	-0.4	-0.4	-2.4%	7%	0.6%
Cc1ccc(OCCC(=O)N(CC(=O)Nc2ccccc2C(F)(F)F)Cc2ccco2)cc1	-31%[inhibitor]	-2%	/	2.4	0.7%	/	5.5%
COc1ccccc1CNc1nc(-c2cccc(NS(C)(=O)=O)c2)nc2ccccc12	/	/	-3.2	/	/	-3%	0.5%
Cc1ccc(CNC(=O)C2CCC(=O)N(CCc3ccccn3)C2)s1 (stereo not drawn)	3%[15.4 µM]	16%	/	0.6	-1.4%	30%	1.8%
CCN(CC)c1nc(C(N)=O)cc(-c2ccccc2)n1	-2%	?	4.2	0.9	-3.0%	-15%	0.7%
O=C(CSc1nnnn1-c1ccccc1)CSc1nnnn1-c1ccccc1	1%	-7%	5.2	-3.0	-0.8%	3%	/
Cc1ccc(C(=O)N/C(=C/c2cn(-c3ccccc3)nc2-c2ccccc2)C(=O)O)cc1	12%	-21%	-1.6	-4.2	-1.4%	4%	-0.2%
Cc1c(CN2CCC(CO)(CCOc3ccccc3)CC2)[nH]c2ccc(Cl)cc12	?	8%	5.3	12	/	?	-1.4%
O=C(c1ccc(COc2ccc(F)cc2)o1)n1cc(Br)cn1	?	-5%	1.9	-3.9	0.0%	-21%	-3.0%
COc1ccccc1N1CCN(c2cc(=O)n(-c3ccc(Cl)cc3)c(=O)[nH]2)CC1	-32%[inhibitor]	-5%	1.6	0.0	1.6%	-1%	1.2%
Cc1c(CCC(=O)N2CCC(C(=O)O)CC2)c(=O)oc2cc3oc4c(c3cc12)CCCC4	/	?	4.3	-2.4	-13%	10%	-0.2%
SMILES	gsp ag	gsp antag	Menin MLL FP FL	D2 agonist	ClpP mod	Sfp PPTase inh	PINK1 expr mod
O=C(COc1ccc2c(c1)OCO2)NC12CC3CC(CC(C3)C1)C2	-26%	-10%	-3.0	-3.7	-1.0%	11%	-0.9%
COC(=O)NCCOC(=O)N(O)c1ccc(Br)cc1	16%	-15%	1.8	0.2	-5.0%	24%	0.8%[38.3 µM]
O=S(=O)(c1ccc(F)cc1F)N1CCN(CCO)CC1	4%	2%	/	-1.8	-0.6%	/	-4.8%
CCOc1cc(/C=N/n2cnnc2)c(Br)cc1O	-35%[inhibitor]	-34%	-0.3	0.1	-4.0%	2%	-1.2%[38.3 µM]
Cc1nc2ccc(NC(=O)N3CCCCC3)cc2s1	9%	-13%	2.0	-4.1	-2.6%	12%	9.9%[38.3 µM]
Cc1ccc(/C=C/C(=O)N2CCN(c3ncccn3)CC2)o1	?	24%	12	-1.9	-6.7%	-105%	2.2%
CCOc1ccc(CCNS(=O)(=O)c2c(C)nc3scc(C)n3c2=O)cc1OCC	3%	5%	-2.6	0.2	-4.9%	16%	-0.7%&-0.5%
Cc1ccc(-c2nn(CCC#N)cc2C=C(C#N)C#N)cc1	12%	-23%	0.9	-1.1	4.5%	-14%	/
O=C(CN1C(=O)NC2(CCCC2)C1=O)N1CCN(c2ccccc2O)CC1	-1%[15.4 µM]	2%	/	-3.0	-0.9%	/	0.4%
CN1C(=O)C(C(=O)Nc2ccccc2F)c2ccccc21 (stereo not drawn)	-44%	-15%	/	2.1	-4.1%	7%	1.2%
O=C(OCC(O)CN1CCCCC1)C12CC3CC(CC(C3)C1)C2 (stereo not drawn)	-12%	7%	2.3	-1.9	1.3%	4%	-0.6%
Cc1cccc(Oc2ccccc2NC(=O)C2=COCCO2)c1	0%	7%	/	-4.4	0.1%	/	1.0%
CCOC(=O)CSc1nc2ccccc2c(=O)n1-c1ccc(C(=O)NCCOC)cc1	?	3%	-2.3	-2.6	0.5%&-2.6%	-3%	?
CC(O)(c1ccc(F)c(F)c1)c1nc(/C=C/c2ccc(C(F)(F)F)cc2)cs1 (stereo not drawn)	/	/	/	1.4	?	/	-1.2%
COc1ccc(-c2nc(CS(=O)CC(=O)NCc3ccccn3)c(C)o2)cc1 (stereo not drawn)	-93%[inhibitor]	-12%	?	-2.3	?	?	0.9%
